Source: PubChem
Tg IFNy HTS – T. gondii growth inhibition with IFN-gamma, primary screen, cell-based; Toxoplasma gondii growth in IFN-gamma-treated host cells; stronger effect = lower value; reference of the scale not given here; activity change, negative = inhibition, %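 (about 20 µM by stock and volumes)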; hit rate 3.8% among 69,000; AID 1259416, 2018;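 active means below -70%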;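 further: host cells are HeLa cells infected with Toxoplasma gondii; parasite growth read as luciferase light; one replicate is shown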
Numbers without * were called inactive; & = joins results of further samples; ! = a repeat was not active. Some of the compounds tested, so the mix of outcomes need not match the whole.

SMILES | Tg IFNy HTS
COc1cccc(OCC(=O)NCCc2csc(-c3ccc(F)cc3)n2)c1 | 34.8
O=C(NCc1ccco1)C1=NOC2(CCN(Cc3ccc(Cl)c(F)c3)C2)C1 (stereo unspecified) | -16.0
O=C(c1ccncc1)N1CCCC2(CCCN2Cc2ccc(Cl)cc2)C1 (stereo unspecified) | -7.6
COc1cccc(-c2ccncn2)c1OC | -5.8
Cc1ccc(C(=O)Nc2c(C(=O)N3CCN(c4ccccn4)CC3)[nH]c3ccc(C)cc23)cc1 | 14.3
CC(C)C(=O)C1Cc2nc(-c3ccccc3)sc2N1CC1CC1 (stereo unspecified) | -13.5
Cc1cccc(-c2noc(-c3nnn(Cc4nc(-c5cccc(C)c5)oc4C)c3C)n2)c1 | 32.1
CC(C)C(NC(=O)C(=O)N1CCCc2ccccc21)c1ccccn1 (stereo unspecified) | -2.1
CN(C)C(=O)N1CCC(c2nnc3ccc(C(=O)NCCc4ccncc4)cn23)C1 (stereo unspecified) | 10.9
COc1ccccc1C1(O)CCCN(C(=O)c2ccc3nc(C)[nH]c3c2)C1 (stereo unspecified) | 8.1
COCc1nc(N[C@H]2CCCN(Cc3ccccc3)C2)c2cnn(C)c2n1 | -15.9
CN1C(=O)c2cc(NC(=O)Nc3ccc(Cl)cc3)ccc2OC[C@@H]2O[C@H](CC(=O)NCCN3CCCCC3)CC[C@@H]21 | -12.2
CCOC(=O)c1sc(CN2CCN(c3cccc(Cl)c3)CC2)nc1C | -51.9
CCOC(=O)c1c(NC(=S)NC(=O)c2ccccc2)sc(C)c1C | -73.4*
CC(CNC(=O)c1cc2cc(S(=O)(=O)N(C)C)ccc2n1Cc1ccncc1)c1ccccc1 (stereo unspecified) | -11.2
CC(C)(C)OC(=O)NC(CSCc1ccccc1)C(N)=O (stereo unspecified) | -2.7
CC(C)(C)c1ccc(-c2nc(O)c(CC(=O)O)s2)cc1 | 85.4
c1cncc(CN(CCN2CCOCC2)Cc2cccn2C2CCCCC2)c1 | -1.8
CCN(CC)C(=O)c1cc(=O)n(CC(=O)Nc2ccc3c(c2)OCCO3)c2ccccc12 | 13.4
CCC1CN(Cc2c(Cl)cncc2Cl)CCN1C(C)C (stereo unspecified) | 4.5

Two entries drawn at random from the list so far, as already listed:
SMILES | Tg IFNy HTS
COCc1nc(N[C@H]2CCCN(Cc3ccccc3)C2)c2cnn(C)c2n1 | -15.9
COc1ccccc1C1(O)CCCN(C(=O)c2ccc3nc(C)[nH]c3c2)C1 (stereo unspecified) | 8.1

For convenience, some entries already given.
SMILES | Tg IFNy HTS
COc1cccc(OCC(=O)NCCc2csc(-c3ccc(F)cc3)n2)c1 | 34.8
O=C(NCc1ccco1)C1=NOC2(CCN(Cc3ccc(Cl)c(F)c3)C2)C1 (stereo unspecified) | -16.0
O=C(c1ccncc1)N1CCCC2(CCCN2Cc2ccc(Cl)cc2)C1 (stereo unspecified) | -7.6
COc1cccc(-c2ccncn2)c1OC | -5.8
Cc1ccc(C(=O)Nc2c(C(=O)N3CCN(c4ccccn4)CC3)[nH]c3ccc(C)cc23)cc1 | 14.3

Other records follow.
SMILES | Tg IFNy HTS
Cn1c(CN2CCC(N)(C(=O)O)C2)cc2ccccc21 (stereo unspecified) | 17.6
CCS(=O)(=O)Nc1ccc2c(c1)C(=O)N(C)[C@@H]1CC[C@H](CC(=O)NC3CCCCC3)O[C@H]1CO2 | 17.9
N#CCCn1ncc(C#N)c1-n1cccc1 | 52.0
C[C@@H]1CCCCO[C@@H](CN(C)Cc2ccc(C(F)(F)F)cc2)[C@H](C)CN([C@@H](C)CO)C(=O)c2cc(NC(=O)Nc3cccc4ccccc34)ccc2O1 | -2.1
c1ccc(CN2Cc3nccn3CC(CN3CCCC3)C2)nc1 (stereo unspecified) | -17.0
Cn1cc(-c2cnc(-c3cccc(F)c3)nc2)cc1C(=O)Cc1ccccn1 | -51.7
CCOC(=O)C1(CCOc2ccccc2)CCNCC1 | -4.1
CCN(CC)c1ncnc2c1cnn2CC(=O)Nc1ccc(OC)cc1 | 89.2
Cc1c(NC(=O)Cc2ccccc2)c(=O)n(-c2ccccc2)n1C | 5.7
FC(F)(F)c1cc(Br)c2nc(-c3ccc(Cl)c(Cl)c3)cnc2c1 | -9.3
CCOC(=O)NC(=O)c1cn(Nc2ncc(C(F)(F)F)cc2Cl)c(=O)[nH]c1=O | -22.9
CCCCC(=O)O[C@]1(C(=O)CO)CCC2C3CCC4=CC(=O)CC[C@]4(C)C3[C@@H](O)C[C@@]21C (stereo partly specified) | 15.3&-9.5
C[C@@H]1O[C@@H](OC[C@H]2O[C@@H](Oc3c(-c4ccc(OCCO)c(OCCO)c4)oc4cc(OCCO)cc(O)c4c3=O)[C@H](O)[C@@H](O)[C@@H]2O)[C@H](O)[C@H](O)[C@H]1O | -28.8&11.7
Cc1ccc(-c2nc(CN3CCN(C(=O)Nc4ccccc4)CC3)c(C)o2)cc1 | -0.3
Cc1nc2sccn2c1C(=O)N(C)Cc1nc(CC(C)C)no1 | 9.6
Cn1cc(S(=O)(=O)Nc2ccc(C(O)CN3CCCCC3)cc2)c(=O)n(C)c1=O (stereo unspecified) | 9.7
CCCC(=O)Nc1cc2c(cc1C(=O)c1ccccc1Cl)OCCO2 | 11.5
O=C(CC1N=C2c3ccccc3N=C(SCc3ccc(F)cc3)N2C1=O)NCc1ccccc1 (stereo unspecified) | -19.2
O=C(c1ccoc1)N1CCCn2c(nc(CN3CCCC3)cc2=O)C1 | -0.2
COc1ccc(CN2CCCC3(COCCN(c4ncccn4)C3)C2)cc1 (stereo unspecified) | -8.9
CCCc1cc(-c2nc(CC3CCN(C)CC3)no2)ccn1 | -11.2
c1coc(CN2CCCn3nnc(COCCN4CCCC4)c3C2)c1 | -1.8
CNC(=O)Cc1nc2ccccc2n1CC(=O)Nc1ccc2c(c1)N(C)CCC2 | 20.0
O=C(Nc1ccccc1)N1CC2CN(Cc3cccc(F)c3)C2C1 (stereo unspecified) | -14.3
COc1ccc(C(=O)N2CCC[C@@H]2C(=O)NCCc2csc(-c3ccccc3)n2)cc1 | 13.0
FC(F)(F)C(Cl)Br (stereo unspecified) | 25.3
CCOc1ccc(NC(=O)N2CCC3(CC2)NC(=O)c2ccccc2N3CC)cc1 | -1.5
Cc1nnc(SCC(=O)N2CCC(c3cc4ccccc4cn3)CC2)o1 | 13.2
O=C(C[C@@H]1CC[C@@H]2NC[C@@H](O)COC[C@H]2O1)Nc1nccs1 | 14.6
CCN1C(=O)CCc2cc(NC(=O)c3ccnn3C)ccc21 | 91.7
Cc1ccc(SC(C)C(=O)NCc2cnn3ccccc23)cc1 (stereo unspecified) | -46.6
COCCN(CCOC)Cc1c(C)[nH]c2c(C)c(C)ccc2c1=O | 1.8
CCn1cc(CN2CCN(S(=O)(=O)Cc3ccccc3F)CC2)cn1 | 16.2
CCn1ncc2c1C(COCC1CC1)N(C(=O)c1cscn1)CC2 (stereo unspecified) | 2.6
COc1ccc(CN2CC3(CN(S(=O)(=O)c4ccc(C)cc4)C3)c3c([nH]c4cc(OC)ccc34)[C@H]2CO)cc1 | -52.6
CCC(Nc1cccc(OC)c1)C(=O)NC1(CO)CCCC1 (stereo unspecified) | -5.5
CCCOCCn1cc(C2CC=CCC2)nn1 (stereo unspecified) | -3.1
CN(C)c1cccc(C(=O)N2CCC3(CC2)Nc2ccc(Cl)cc2-n2cccc23)c1 | 12.3
Cc1noc(C)c1C1CCCN1C(=O)c1cc(-c2cccn2C)n[nH]1 (stereo unspecified) | 5.5
COc1ccc(NC(=O)N2C[C@H](O)COC[C@H]3O[C@H](CC(=O)N4CCCCC4)CC[C@@H]32)cc1 | 23.1
CCCNC(=O)N1[C@@H](C#N)[C@@H](c2ccc(-c3ccccc3F)cc2)[C@@H]1CO | 9.0
Cc1nc(CN2CCC3(CCN(Cc4cccn4C)C3)C2=O)cs1 (stereo unspecified) | -55.3
Cc1ccc(-c2csnn2)cc1NC(=O)CCS(=O)(=O)c1ccc(Cl)cc1 | 1.0
CCc1cc(C(=O)Nc2n[nH]c(CC3CCCCC3)n2)c2c(C)noc2n1 | -9.6
COc1ccccc1N1CCN(C2CCCN(c3ccc(C(C)=O)cn3)C2)CC1 (stereo unspecified) | -3.9
C=CCn1c2ccccc2n2c(C(=O)CC)c(-c3ccccc3)nc12 | -97.7*
O=C(C[C@H]1CC[C@@H]2[C@H](COC[C@@H](O)CN2Cc2nccs2)O1)N1CCC(Cc2ccccc2)CC1 | -30.8
O=C([C@H]1[C@H](CO)[C@H]2Cn3c(ccc(C4=CCCC4)c3=O)[C@@H]1N2C(=O)c1cccnc1)N1CCOCC1 | 3.8
Cn1cc(CN2CCn3nnc(CO)c3C2)cn1 | -46.1
CN1C(=O)c2cc(NC(=O)Nc3ccccc3Cl)ccc2OC[C@H]2O[C@H](CC(=O)NCCCN3CCOCC3)CC[C@@H]21 | 1.5
COCCn1nnnc1C(c1cccs1)N1CCN(c2cc(C)ccc2C)CC1 (stereo unspecified) | -95.0*
COc1ccc(-c2ccccc2NC(=O)c2cccc(CN3CCCC3=O)c2)cc1 | -5.8
CCN(Cc1noc(CC(C)C)n1)C(=O)CC1COCCN1 (stereo unspecified) | -43.9
CC(C)C(=O)NC1COC2(CCN(C(=O)Cc3ccccn3)CC2)C1 (stereo unspecified) | -2.0
O=[N+]([O-])c1cn2c(n1)OC[C@@H](OCc1ccc(OC(F)(F)F)cc1)C2 | 15.2
Cc1cc(C(=O)N2CCC3(CC2)CC(=O)Nc2ccccc23)n[nH]1 | 264.4
Cn1nc(C(=O)Nc2cnc3n2CCCC3)ccc1=O | -4.0
CCN1c2ccc(F)cc2C(=O)NC12CCN(C(=O)c1ccc3c(c1)OCO3)CC2 | 30.3
O=C(NCCN1CCCCC1)C1CN(S(=O)(=O)c2cccnc2)CC12CCCCC2 (stereo unspecified) | 75.3
CCn1nc(C(=O)O)c2c1CCC(NCCc1cnccn1)C2 (stereo unspecified) | -1.1
The listing continues:
SMILES | Tg IFNy HTS
NC(N)=N/N=C/c1ccc(OS(=O)(=O)c2ccccc2)cc1 | -76.8*
O=C1CCC2(CCN(c3ncc(F)cn3)CC2)N1Cc1cccc(F)c1 | 0.7
Fc1cnc(N2CC[C@@H]3[C@H]2CCN3c2nncs2)nc1 | 15.2
COc1cccc(S(=O)(=O)N2CCCCN3[C@H](CO)[C@H](c4ccc(C#CCC(C)C)cc4)[C@@H]3C2)c1 | -7.4
Cc1ccc(CNC2=NCCNC23CCN(S(=O)(=O)c2ccc(C(C)C)cc2)CC3)cc1 | -56.1
CCn1c(C2CCCNC2)nn(Cc2nc(CCOC)no2)c1=O (stereo unspecified) | -2.8
CON(C)Cc1csc(NC(=O)OC(C)(C)C)n1 | 1.5
COCCOC(=O)C1=C(C)NC(C)=C(C(=O)OC/C=C/c2ccccc2)C1c1cccc([N+](=O)[O-])c1 (stereo unspecified) | -72.6*!
Cn1ncc2c1C(COCC1CC1)CN(Cc1cccnc1)C2 (stereo unspecified) | -57.6
CC(C)CC#Cc1ccc([C@@H]2[C@@H](CO)N3C(=O)CN(C(=O)c4cccc(F)c4)C[C@@H]23)cc1 | -29.8
COc1ccc(CNC(=O)N(C)C[C@H]2OCc3ccccc3-c3c(n(C)c4ccccc34)C(=O)N([C@H](C)CO)C[C@H]2C)cc1 | -45.3
CCc1nnc(CNC(=O)c2ccccc2C2CCNC2)s1 (stereo unspecified) | 2.6
O=C(c1ccsc1)N1CCC2(CC1)CC(Oc1ccccn1)CO2 (stereo unspecified) | 1.1
O=C(NC1CC1)c1ccccc1OCc1nc(-c2cccs2)no1 | -13.1
Cc1ccc(S(=O)(=O)N2CCC3(CC2)NCCN=C3NCc2cc(F)cc(F)c2)cc1C | 6.4
O=C(O)c1cc2n(n1)CCN(Cc1ccccc1)C2 | -2.3
CCOc1ccccc1N(Cc1nc(-c2cccc(C)c2)oc1C)S(=O)(=O)c1ccccc1 | -38.6
Cc1ccc(CN(C)Cc2cnn3cccnc23)o1 | -45.4
CNC(=O)c1cc(=O)n(CC(=O)Nc2ccccc2)c2ccccc12 | 1.2
CC1C(=O)C(=O)[C@@H]2O[C@@H]2C1=O (stereo partly specified) | 26.1

Some of the entries so far, with tabs:
SMILES	Tg IFNy HTS
Cn1nc(C(=O)Nc2cnc3n2CCCC3)ccc1=O	-4.0
CCN1c2ccc(F)cc2C(=O)NC12CCN(C(=O)c1ccc3c(c1)OCO3)CC2	30.3
O=C(NCCN1CCCCC1)C1CN(S(=O)(=O)c2cccnc2)CC12CCCCC2 (stereo unspecified)	75.3
CCn1nc(C(=O)O)c2c1CCC(NCCc1cnccn1)C2 (stereo unspecified)	-1.1
NC(N)=N/N=C/c1ccc(OS(=O)(=O)c2ccccc2)cc1	-76.8*

Following part:
SMILES | Tg IFNy HTS
O=S(=O)(c1ccccc1)c1cnc2c(N3CCNCC3)cccc2c1 | 14.6
CCOC(=O)c1ccc(NC(=O)NCC(c2cccnc2)c2cn(CC)c3ccccc23)cc1 (stereo unspecified) | -101.8*
CN1c2ccccc2C(=O)N2CCc3c([nH]c4ccccc34)C21 (stereo unspecified) | -80.2*
COc1ccc(CN(C)C[C@H]2OCCCC[C@H](C)Oc3ccc(NC(=O)C4CCCCC4)cc3C(=O)N([C@@H](C)CO)C[C@@H]2C)cc1 | 270.5
COc1ccc2oc(C(=O)Nc3cc(C)nn3Cc3ccncc3)cc2c1 | 99.8
Cc1cccc(CN2C(=O)CCC23CCN(C(=O)C2CCOC2)CC3)c1 (stereo unspecified) | 3.8
O=C(CN1CCCC1)N1CCN(C(=O)c2ccccc2)C1 | 28.7
COCCN1CC2(CCN(C(=O)C3CCOCC3)CC2)COc2ccccc2S1(=O)=O | -8.6
CCN(CCOc1ccccc1F)C(=O)c1ccc(N(C)C)cc1 | 81.2
NC(=O)N1CCc2cc(C(=O)O)c(-c3ccncc3)nc2CC1 | -32.3
FC(F)(F)c1cc(Sc2cc(C(F)(F)F)nc3ccccc23)c2ccccc2n1 | -10.6
COc1ccc(CNC(=O)C[C@@H]2CC[C@H](NC(=O)CN(C)C)[C@H](CO)O2)cc1 | -47.0
O=c1[nH]c2ccc(S(=O)(=O)NCc3ccccc3)cc2[nH]c1=O | -2.5
CN1CCN(C(=O)C[C@@H]2CC[C@H]3[C@@H](COC[C@@H](O)CN3Cc3cccc(-c4ccncc4)c3)O2)CC1 | -26.4
